# Arbovirus anti – arbovirus infection inhibition | arbovirus infection cell-based antiviral screen | inhibition, % at 10 µM | AID 1251 | 0.37% of 200,000 active;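 active means inhibition from about 30%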;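 further: bluetongue infection of BSR cells; cell survival read as ATP light after 72 h; 0% = infected wells without compound and 100% = uninfected wells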
# RecA splice inh – inhibitors of M. tuberculosis RecA intein splicing; P9WHJ3; cell-free RecA intein splicing, fluorescence; AID 2221; 0.75% of 290,000 active; inhibition, %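 (about 9 µM by stock and volumes)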; in the data active means inhibition above about 30%; inconclusive means no clear call, values can overlap the other calls;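 further: 0% = vehicle wells and 100% = reference inhibitor control wells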
# Target sequence (P9WHJ3 whole entry, looked up, canonical isoform): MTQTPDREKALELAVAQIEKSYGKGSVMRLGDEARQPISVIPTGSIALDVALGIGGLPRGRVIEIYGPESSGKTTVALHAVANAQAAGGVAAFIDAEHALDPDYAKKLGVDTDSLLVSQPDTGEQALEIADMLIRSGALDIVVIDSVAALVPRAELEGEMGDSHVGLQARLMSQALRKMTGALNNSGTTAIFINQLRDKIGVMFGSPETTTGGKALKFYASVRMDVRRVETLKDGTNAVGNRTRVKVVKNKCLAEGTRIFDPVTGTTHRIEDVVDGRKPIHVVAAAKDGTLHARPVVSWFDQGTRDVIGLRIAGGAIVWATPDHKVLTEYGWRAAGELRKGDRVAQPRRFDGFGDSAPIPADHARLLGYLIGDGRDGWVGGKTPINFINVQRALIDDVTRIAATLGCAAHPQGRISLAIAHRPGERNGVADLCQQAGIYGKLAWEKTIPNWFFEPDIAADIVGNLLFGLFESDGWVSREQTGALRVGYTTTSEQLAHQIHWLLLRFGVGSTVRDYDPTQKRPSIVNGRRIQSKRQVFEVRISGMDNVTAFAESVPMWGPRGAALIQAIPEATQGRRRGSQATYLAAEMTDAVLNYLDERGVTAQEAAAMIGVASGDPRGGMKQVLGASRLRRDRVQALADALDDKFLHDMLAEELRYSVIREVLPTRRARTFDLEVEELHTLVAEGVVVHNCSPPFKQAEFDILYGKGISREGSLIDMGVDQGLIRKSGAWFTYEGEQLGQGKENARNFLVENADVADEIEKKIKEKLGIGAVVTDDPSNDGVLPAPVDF
# YopH PTP inh – inhibitors of Yersinia enterocolitica YopH tyrosine phosphatase; fluorescence Ex485/Em525; inhibition, %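 (about 10 µM by stock and volumes)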; 0.16% of 140,000 active;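 active means inhibition of 50% or more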;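 further: controls were vehicle for no effect and minimum signal wells for full effect; inactives centre near -20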
# Mtb bLac sens – beta-lactam sensitization of Mtb H37Rv | M. tuberculosis H37Rv growth with meropenem, percent inhibition; hits of this screen are not shown here | inhibition, % at 25 µM | 0.27% of 330,000 active | AID 434955;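 active means about 74% or more and at least 40 points above the plate without the antibiotic, then above 30% in a dose series; inconclusive means first-round hits that could not be retested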;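 further: growth measured after seven days incubation then overnight dye step; 0% = bacteria only wells and 100% = bacteria with antibiotic; twin plates without the antibiotic show which effects depend on it; some results filed as inactive read as strong as hits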
# Mtb growth – M. tuberculosis H37Rv growth inhibitors, H37Rv strain (AID 1626); M. tuberculosis H37Rv growth inhibition; higher % means a stronger effect; inhibition, % at 10 µM, or IC50 in µM where a hit was titrated; 0.95% of 220,000 active;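 active means confirmed in a dose series; inconclusive means inhibition above 80% but not taken into the dose series; inactive means below 80% or under 30% at every dose of the series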;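 further: bacteria incubated seven days before Alamar blue readout; 0% = bacteria only wells and 100% = bacteria with antibiotic wells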
# Arbovirus anti repeat – further read-out of Arbovirus anti, marked with its call; inhibition, %; measured here: 10K subset replicate screen; many hits read low in the repeat;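 first of two repeat runs on a subset; 0% = infected and 100% = uninfected wells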
# * = called active by the depositor; ? = inconclusive; / = no result given; & = joins results of further samples. This is a subset; count on the stated rates, not on these rows.
SMILES,Arbovirus anti,RecA splice inh,YopH PTP inh,Mtb bLac sens,Mtb growth,others
O=C(N/N=C/c1cccn1-c1ccc([N+](=O)[O-])cc1)C(O)c1ccccc1 (stereo not given),-9,5.8,-6,5,-4%,
Fc1ccccc1NC(=S)Nc1cccc2cnccc12,12,1.9,/,3,-6%,
C/C(=N/N1CCN(c2ccccn2)CC1)c1cccc([N+](=O)[O-])c1,-3,-2.1,-19,0,-4%,
O=[N+]([O-])c1cccc2ccc(/C=C/c3cccc(Br)c3)nc12,-6,8.8,-28,0,5%,
CCCCc1nc(SCC(=O)Nc2ccc(S(N)(=O)=O)cc2)n[nH]1,-2,2.9,-1,-3,-19%,
Cn1c(CC(=O)Nc2ccc(F)cc2)nnc1SCC(=O)NC1CCCCC1,/,0.8,/,-2,/,
CC(=O)Nc1ccc(S(=O)(=O)N2CCCC(C(=O)N3CCN(c4ccccc4)CC3)C2)cc1 (stereo not given),/,2.3,/,-15,/,
COc1cc(SC)ccc1C(=O)NC1CCCc2ccccc21 (stereo not given),/,2.0,/,0,/,
COc1cc(/C=N/NC(=O)c2ccc(NC(=O)C3CC3)cc2)ccc1OC(C)=O,/,-2.3,/,-8,/,
COc1ccc(Cn2nnnc2C(c2ccccc2)N2CCN(C3CCCC3)CC2)cc1 (stereo not given),1,1.5,-32,/,2%,
O=C(Nc1ccc(S(=O)(=O)Nc2nccs2)cc1)c1nn(-c2ccccc2)ccc1=O,/,3.6,/,12,/,
CC1CC(C)CN(c2ncc3c(n2)CC(c2ccccc2Cl)CC3=O)C1 (stereo not given),4,9.3,-34,84,?,
FC(F)(F)c1ccccc1NC(=S)N/N=C1\CC2CC=CC12 (stereo not given),-15,/,/,/,-4%,
CCc1ccc(C(=O)C(C)OC(=O)c2nc3nc(C)cc(C)n3n2)cc1 (stereo not given),/,-1.1,/,2,/,
O=C(NCCc1ccccc1)C1CCC(=O)N1CCc1ccccc1 (stereo not given),/,0.0,/,1,/,
COc1ccc(/C=N/NC(=O)COc2ccc(Cl)cc2Cl)cc1Cn1nc(C)cc1C,17,0.1,-8,-1,6%,
Cc1cccc(N(C(=O)CNC(=O)c2ccco2)C(C(=O)NCC2CCCO2)c2ccccc2)c1 (stereo not given),-14,6.8,/,-4,-7%,
Cc1ccc2cc(CCNC(=O)c3cccs3)c(=O)[nH]c2c1,-3,/,-34,-1,/,
O=C(CCn1c(=O)oc2ccccc21)Nc1nccs1,7,1.0,-54,-1,-12%,
Cc1ccc(C(=O)Oc2cccc(NC(=O)c3cccs3)c2)cc1S(=O)(=O)N1CCOCC1,5,/,2,-2,-13%,
O=C(COC(=O)c1ccc([N+](=O)[O-])cc1)Nc1ccc(Cl)cn1,/,0.9,/,16,/,
Cc1ccc(Nc2nnc(SCc3ccccc3)s2)cc1,-10,-0.7,-134,93,-2%,
c1ccc(-c2nc[nH]c2-c2ccccc2)cc1,-8,3.6,-25,14,-6%&10%,
O=C(O)Cc1ccc(NS(=O)(=O)c2c(Cl)cccc2Cl)cc1,2,-2.6,/,-7,-1%,
COc1ccc(NC(=S)NC(=O)c2cccnc2)cc1,/,2.2,/,0,/,

# New compounds follow
SMILES,Arbovirus anti,RecA splice inh,YopH PTP inh,Mtb bLac sens,Mtb growth,others
Cc1nc2cc(NC(=O)COc3ccc(C#N)cc3)ccc2n1-c1ccccc1,-7,-3.5,-3,?,-4%,
CCC(C)(C)n1nnnc1C(c1ccc(OC)cc1)N1CCN(C(=O)c2ccco2)CC1 (stereo not given),/,0.4,/,2,/,
C#CCn1c(=NC(=O)c2sc3ccccc3c2Cl)sc2cc(S(N)(=O)=O)ccc21,-22,-5.3,1,1,3%,
Cc1ccc(-c2nn3c(C)nnc3s2)cc1NCc1c(F)cccc1Cl,-16,-2.4,9,11,1%,
CC(C)CC1C2C(=O)N(c3ccccc3)C(=O)C2ON1c1ccccc1 (stereo not given),/,0.7,/,2,-12%,
CCOC(=O)/C(=N\Nc1ccccc1)P(=O)(c1ccccc1)c1ccccc1,/,8.5,/,0,10%,
COc1cc(/C=C/C(=O)c2ccc(F)cc2)cc(OC)c1OC,-29,2.1,/,98,4.9µM*,
O=C(c1ccncc1)N1N=C(c2ccc(Cl)cc2)CC1c1ccccc1O (stereo not given),/,9.2,/,7,/,
Cc1ccc(C(=O)Nc2ccccc2C(=O)NCc2ccco2)cc1S(=O)(=O)N1CCCCC1,-3,9.8,-13,3,-1%,
CN(C(=O)COC(=O)C1CCN(S(=O)(=O)c2ccc3c(c2)OCCO3)CC1)c1ccccc1,/,-2.0,/,2,/,
O=C(CSc1n[nH]c(-c2ccco2)n1)Nc1ccc(Br)cc1,/,0.5,/,100,/,
CCn1c(=O)n(CC)c2cc(N3CCCC3)c(NC(=O)c3ccc(C)c([N+](=O)[O-])c3)cc21,/,-4.3,/,-1,/,
Cn1c(CSc2nc3ccc(Br)cc3[nH]2)nc2ccccc21,0,1.1,-26,4,51%,Arbovirus anti repeat=14
CCN1CCN(C(=O)/C=C/c2ccc(OC)c(OC)c2)CC1,/,1.3,/,-6,/,
COC(=O)Cc1c(C)c2ccc(OC3CCCCC3=O)c(C)c2oc1=O (stereo not given),/,1.3,/,4,/,
CCN1CCN(C(c2cccs2)C(C)NC(=O)Oc2ccccc2)CC1 (stereo not given),9,0.8,/,0,1%,
O=C(O)[C@H](Cc1ccccc1)NC(=O)N1CCN(c2ccc(F)cc2)CC1,/,-0.9,/,-11,-6%,
CCCCOc1ccc(NC2=NC3(CCCC3)N=C(N)N2)cc1,-9,2.0,-83,2,-5%,
CCOc1ccccc1Oc1coc2cc(OC(=O)N(C)C)ccc2c1=O,/,3.7,/,1,/,
Cc1noc2ncnc(N3CCN(c4cccc(Cl)c4)CC3)c12,7,-1.0,/,-3,7%,
CCOC(=O)N1CCN(c2nc3ccccc3n3cnnc23)CC1,/,-0.8,/,-6,-7%,
CCOC(=O)c1ccc(N=C2C(=S)N(c3ccc(C(=O)OCC)cc3)C(=N)N2/N=C/c2ccccc2)cc1,15,1.8,-10,99,?,
CCS(=O)(=O)N1Cc2ccccc2CC1C(=O)N(C)Cc1ccc(OC)c(F)c1 (stereo not given),/,3.0,/,2,/,
CC(C)CCn1c(CN2CCN(Cc3ccccc3)CC2)nc2c1c(=O)n(C)c(=O)n2C,-18,0.4,1,-5,-1%,
Cc1cc(C)cc(NC(=O)N2c3ccccc3NC(=O)CC2C)c1 (stereo not given),/,0.0,/,-4,-6%,

# Structural class: the compounds so far with bromine
SMILES,Arbovirus anti,RecA splice inh,YopH PTP inh,Mtb bLac sens,Mtb growth,others
O=[N+]([O-])c1cccc2ccc(/C=C/c3cccc(Br)c3)nc12,-6,8.8,-28,0,5%,
O=C(CSc1n[nH]c(-c2ccco2)n1)Nc1ccc(Br)cc1,/,0.5,/,100,/,
Cn1c(CSc2nc3ccc(Br)cc3[nH]2)nc2ccccc21,0,1.1,-26,4,51%,Arbovirus anti repeat=14

# Later entries
SMILES,Arbovirus anti,RecA splice inh,YopH PTP inh,Mtb bLac sens,Mtb growth,others
Nc1nn(-c2ccccc2)c(N)c1N=Nc1ccccc1,-24,5.5,-23,-1,-2%,
O=C(c1ccccc1)n1nnc2ccccc21,0,0.3,-32,1,-25%,
COc1cc(COCC(O)CN2CCc3ccccc3C2)cc(OC)c1OC (stereo not given),-2,2.3,/,0,3%,
CC1=C(C(=O)Nc2ccc(C)cc2)C(c2ccc(N(C)C)cc2)NC(=O)N1 (stereo not given),-1,-1.1,-14,?,-2%,
O=C1CCCC(=NCc2ccco2)C1,5,1.5,-34,-4,-4%,
Cc1nn(Cc2ccccc2)c(C)c1/C=N/NC(=O)c1cccnc1,6,-1.2,-5,-2,1%,
CCN1C(=O)/C(=C\N2CCOCC2)SC1=S,9,3.8,-24,6,-5%,
CCC(Sc1nc(N)c(NC(=O)c2ccco2)c(=O)[nH]1)C(=O)O (stereo not given),/,0.7,/,-17,/,
CCOc1cc(CNCCO)cc(Br)c1OCc1cccs1,2,-2.5,-7,30,-1%,
O=C(Nc1ccc(Br)cc1Br)c1cccc2c1C(=O)N(C1CCCCC1)C2,/,7.5,/,12,/,
O=C(NN=C1CCCCCCCCCCC1)c1cccc(S(=O)(=O)N2CCOCC2)c1,-2,-0.3,-20,4,-10%,
O=C1CCN(S(=O)(=O)c2ccc(Cl)cc2)N1,5,/,-45,-4,-13%,
CCCCNC(=S)N1CCN(Cc2ccc3c(c2)OCO3)CC1,-10,-1.3,/,-3,-3%,
N#CCc1cc2ccc3cccc4ccc(c1)c2c34,/,/,/,36,9%,
CCOc1ccc2nc(NC(=O)C(CCSC)NS(=O)(=O)c3cccs3)sc2c1 (stereo not given),-1,0.8,0,-5,7%,
NP(=O)(OCCCc1ccccc1)Oc1ccccc1 (stereo not given),/,1.6,/,0,/,
Cc1ccc(OCc2n[nH]c(=S)n2Cc2ccccc2)cc1,-2,0.2,/,9,7%,
Cc1cccc(COc2ccc(/C=N/NC(=O)c3nnn(-c4nonc4N)c3CN3CCCCC3)cc2)c1,/,-2.6,/,17,/,
CCCC(C(=O)Nc1cccc(S(=O)(=O)N2CCCC2)c1)c1ccccc1 (stereo not given),/,7.0,/,-12,/,
N#CC(C(=O)Nc1cccc(Cl)c1)=C1Nc2ccccc2N1,1,0.2,-19,-2,3%,
CCOc1ccc(Br)cc1S(=O)(=O)Nc1ccc(Cl)c(S(=O)(=O)N(C)C)c1,13,6.9,-12,0,1%,
Cc1ccc(N2CC(C(=O)Nc3nc4ccc(S(C)(=O)=O)cc4s3)CC2=O)cc1 (stereo not given),/,-15,/,0,/,
Cc1cccc2c1-c1sc(C(=O)NCCCN3CCCC(C)C3)cc1CO2 (stereo not given),/,-60,/,4,/,
CCCc1ccc(Oc2cc(Cl)nc(N)n2)cc1,-5,-0.3,-30,14,20%,
CCOC(=O)C1(C)/C(=N/Nc2ccccc2OC)C(=O)C(=O)N1c1ccccc1 (stereo not given),6,-0.7,/,3,-1%,

# Reprinted from the part before: 2 compounds, followed by the next part.
SMILES,Arbovirus anti,RecA splice inh,YopH PTP inh,Mtb bLac sens,Mtb growth,others
CCCc1ccc(Oc2cc(Cl)nc(N)n2)cc1,-5,-0.3,-30,14,20%,
CCOC(=O)C1(C)/C(=N/Nc2ccccc2OC)C(=O)C(=O)N1c1ccccc1 (stereo not given),6,-0.7,/,3,-1%,
Cc1cccc(-c2noc(CCC(=O)NCc3ccco3)n2)c1,-1,0.0,-15,-7,-3%,
Cc1cc(C)n(CCC(=O)N2CCN(S(=O)(=O)c3ccccc3)CC2)n1,/,0.6,/,-1,/,
CC(c1ccccc1)n1cc(C(=O)NCc2ccccn2)nn1 (stereo not given),1,-1.1,-15,-12,3%,
Cc1ccc2nc(NCc3ccccc3)c(C=NCc3cccnc3)c(=O)n2c1,/,-7.7,/,0,6%,
CC(CN1CCCCC1)OC(=O)c1ccc2c(c1)OCO2 (stereo not given),2,-1.2,30,-2,1%,
C#CCOCCOCCOCCNc1nc(N2CCOCC2)nc(N2CCN(C(=O)[C@H]([C@@H](C)O)n3cc(CCCCN)nn3)CC2)n1,-1,0.8,0,-9,4%,
CCCc1cnc(N2CCN(S(C)(=O)=O)CC2)nc1,/,1.1,/,-10,-5%,
O=C(Nc1cccc(Cl)c1N1CCOCC1)c1cccnc1,/,-1.2,/,6,/,
OC1CCCN(Cc2cccc3ccccc23)C1 (stereo not given),3,/,-36,-20,2%,
O=C1Nc2ccc(S(=O)(=O)NCCCO)c3cccc1c23,/,0.7,/,-5,/,
COCCCNc1nc2c(c(=O)n(C)c(=O)n2C)n1Cc1cccc(OC)c1,9,1.9,4,4,0%,
COC(=O)c1c(NC(=O)/C=C/C(=O)O)sc(C)c1-c1ccc(C)cc1,8,43*,/,4,-5%,
CCOC(=O)C1(CC2CC2)CCN(Cc2cn[nH]c2-c2cccc(F)c2)CC1,5,0.3,/,-5,4%,
O=C(COC(=O)c1cccnc1Cl)c1ccccc1,8,0.8,-1,-3,-5%,
O=[N+]([O-])c1cnc2ccccn12,/,-1.8,/,2,-6%,
CN1CCN(C(=S)NC(=O)c2ccc(C(C)(C)C)cc2)CC1,1,-6.0,-11,35,4%,
CC(C)c1ccc(NC(=O)c2ccc3snnc3c2)cc1,/,-64,/,3,/,
COc1ccc(CSCC(=O)N/N=C/c2ccccc2O)cc1,-25,-3.9,/,-4,-7%,
COc1ccc(CCNCC(=O)Nc2ccc(C)c(S(=O)(=O)N(C)C)c2)cc1OC,/,-2.3,/,-5,-3%,
CCOC(=O)c1ccc(NC(=S)N2CCN(C)CC2)cc1,/,-1.9,/,0,/,
O=C(COC(=O)c1cccnc1Cl)c1ccc2c(c1)OCCO2,4,-2.5,/,7,-7%,
O=C(COC(=O)c1cccc(F)c1)Nc1cccnc1Cl,10,-2.1,/,-14,1%,
CCOc1ccccc1NC(=O)c1ccc2[nH]c(C)c(C)c2c1,/,2.2,/,4,/,
